KCNQ2 inh: KCNQ2 channel blockers in CHO-K1 cells – cell-based, FluxOR thallium flux, B-score, primary screen (AID 2156). O88943. hit rate 1.1% among 310,000. 20 min; stronger effect = lower value; only compounds with negative scores are shown here; some inactives read as strong as hits. B-score at 10 µM;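 active means fluorescence ratio B-score at most minus 3 library SDs, with starting brightness B-score within 2 library SDs, cut at about -5.5 in these data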
Target sequence (O88943 whole entry, looked up): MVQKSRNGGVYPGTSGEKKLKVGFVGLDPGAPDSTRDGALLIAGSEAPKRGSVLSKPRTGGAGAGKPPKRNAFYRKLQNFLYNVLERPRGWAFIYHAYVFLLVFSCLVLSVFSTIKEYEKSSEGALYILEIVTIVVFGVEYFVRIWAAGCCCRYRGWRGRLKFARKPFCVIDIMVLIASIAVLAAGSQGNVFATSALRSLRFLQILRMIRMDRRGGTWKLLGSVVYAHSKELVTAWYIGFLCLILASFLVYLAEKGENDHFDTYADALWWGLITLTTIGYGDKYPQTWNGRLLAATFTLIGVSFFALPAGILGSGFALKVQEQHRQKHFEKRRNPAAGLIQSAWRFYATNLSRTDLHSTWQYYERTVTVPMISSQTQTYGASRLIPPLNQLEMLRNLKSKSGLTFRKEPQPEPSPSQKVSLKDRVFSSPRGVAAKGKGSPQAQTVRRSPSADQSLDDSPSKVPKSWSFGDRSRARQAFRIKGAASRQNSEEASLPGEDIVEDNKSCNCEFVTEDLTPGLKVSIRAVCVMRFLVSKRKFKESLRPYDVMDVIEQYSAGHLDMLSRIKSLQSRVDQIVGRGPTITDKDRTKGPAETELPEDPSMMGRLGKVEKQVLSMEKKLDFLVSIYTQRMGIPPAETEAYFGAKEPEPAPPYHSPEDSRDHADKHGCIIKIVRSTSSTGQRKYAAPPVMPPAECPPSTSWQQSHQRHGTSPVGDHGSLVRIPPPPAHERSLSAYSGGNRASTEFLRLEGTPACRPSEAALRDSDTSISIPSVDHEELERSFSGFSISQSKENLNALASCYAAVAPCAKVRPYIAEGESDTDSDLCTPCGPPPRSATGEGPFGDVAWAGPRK
KCNQ2 inh baseline: recorded beside KCNQ2 inh, whose call it bears; B-score; measured here: initial fluorescence intensity artifact check;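 brightness before thallium and not channel activity; 0 = typical well and far values either way flag optical interference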
* marks the source's active call; other numbers are inactive results; i = inactive.

SMILES	KCNQ2 inh	KCNQ2 inh baseline
CCC(Sc1nc2ncccc2[nH]1)C(=O)NC1CCC(C)CC1 (stereo not drawn)	i	0.06
CCCCCCc1cc2cc(S(=O)(=O)c3ccc(C)cc3)c(=O)oc2cc1O	i	-2.91
O=[N+]([O-])c1ccc2[nH]c(O)c(N=NC(=S)Nc3cccnc3)c2c1	i	1.14
CCc1ccc(OCC(=O)NCCN(C)C)c(Br)c1	i	-0.18
CCOCCCN1CN(Cc2ccccc2)CNC1=S	i	2.03
CCCCc1ccc(NC(=O)Nc2cnccn2)cc1	i	-0.98
O=[N+]([O-])c1ccc(N2CCN(CCOc3nonc3-c3ccccc3)CC2)c(Cl)c1	i	-0.24
COc1ccc(C(=O)N/C(=C\c2ccc3c(c2)OCO3)C(=O)NCCc2nc3ccccc3[nH]2)cc1	i	0.16
Cc1ccc(S(=O)(=O)N(C)C)cc1NC(=O)C(C)OC(=O)c1ccc2c(c1)OCCO2 (stereo not drawn)	i	2.03
Cc1cc(C)c2c(n1)SCC(=O)N2CC(=O)Nc1ccc(C)c(C)c1	i	-0.77
COCCCNC(=O)C(Cc1ccccc1)NS(=O)(=O)c1ccc2c(c1)c(=O)n(C)c(=O)n2C (stereo not drawn)	i	-0.02
O=C(N/N=C/C=C\c1ccc([N+](=O)[O-])cc1)c1cccnc1	i	-0.01
Cc1ccc(-n2nnnc2-c2ccco2)cc1	i	-0.07
CCOc1ccc(C(C)=O)cc1COC(=O)C1=COCCO1	i	-0.05
Cc1nn(Cc2c(F)c(F)c(F)c(F)c2F)c(C)c1NC(=O)c1c([N+](=O)[O-])c(C)nn1C	i	-1.21
COc1cc(-c2cc(C(=O)Nc3c(Cl)cc(Cl)cc3Cl)c3ccccc3n2)cc(OC)c1OC	-7.22*	-0.07*
[O-][n+]1c2ccc3nonc3c2nn1-c1ccccc1Cl	i	-1.02
CCOc1ccc(CCNC(=O)COC(=O)CSc2ccccc2C)cc1OCC	i	0.03
CCC(C)[C@H](NC(=O)N1CCCCC1)C(=O)OC (stereo partly drawn)	i	-0.06
COC(=O)C1=C(C)NC2=C(C(=O)CC(C)(C)C2)C1c1cn(Cc2ccc(Br)cc2)nc1-c1ccccc1 (stereo not drawn)	i	-1.75
C=C(C)c1cccc(C(C)(C)NC(=O)NCC2CCCO2)c1 (stereo not drawn)	i	-0.3
COc1ccc(Cc2nc3ccc(C(=O)N4CCCC4)cc3o2)cc1	i	2.18
Cc1ccccc1C(=O)NC1CCN(CC(=O)N2CCCCC2C)CC1 (stereo not drawn)	i	0.1
COc1ccc(NC(=O)CSC(C)c2nc3ccccc3c(=O)[nH]2)cc1 (stereo not drawn)	i	0.94
NC(=O)C1CCN(c2cc(N3CCOCC3)ccc2[N+](=O)[O-])CC1	i	-0.01
O=C(/C(=N\Nc1ccc([N+](=O)[O-])cc1)Sc1nnnn1-c1ccccc1)c1ccccc1	i	0.68
CCN(CC)C(=O)CSc1nnc(-c2ccco2)n1N	i	0.82
Nc1c(C(=O)c2ccccc2)sc(Nc2ccccc2)c1S(=O)(=O)c1ccccc1	i	-2.52
O=C(CCCc1ccccc1)Nc1cccc([N+](=O)[O-])c1	i	1.63
COc1ccc(CNC(=O)COC(=O)c2n[nH]c3ccccc23)cc1	i	0.26
O=C(C1=C[C@H](c2ccc(C(F)(F)F)cc2)C[C@H](OCCCCO)O1)N1CCOCC1	i	-0.24
Fc1ccc(N2Cc3ccsc3C=N2)cc1	i	0.76
O=C(C[n+]1cc(-c2ccc(Cl)cc2)n2c1CCC2)Nc1nc(-c2ccc(F)cc2)cs1	i	1.89
CCN(C(=O)c1ccc(N2CC3CC(C2)c2cccc(=O)n2C3)c(NC(=O)c2ccncc2)c1)c1cccc(C)c1 (stereo not drawn)	i	2.22
O=S(=O)(CCN1CCN(c2ccccn2)CC1)c1ccc(F)cc1	i	0.25
CCC1=Nc2cc(C(=O)NCCCN3CCN(C)CC3)ccc2Sc2ccccc21	i	-1.69
COc1cc2c3nnc(-c4ccc(F)cc4)c-3cn(Cc3ccccc3)c2cc1OC	i	-1.76
C=CCNC(=S)NNC(=O)c1cccn(Cc2cccc(Cl)c2)c1=O	i	1.75
Cc1cc(NS(=O)(=O)c2ccccc2)c(C)c(Cl)c1O	i	1.11
CC(=O)c1sc(N/N=C\c2c(O)ccc3ccccc23)nc1C	i	-0.01
C=CCc1ccc(OCc2ccc(C(=O)OC)o2)c(OC)c1	i	1
CCOC(=O)c1[nH]c2ccc(C)cc2c1N=CN(CC)CC	i	-1.53
CCOC(=O)/C(=N\Nc1ccccc1[N+](=O)[O-])c1csc(N)n1	i	-0.02
Cc1ccc2[nH]c3c(c2c1)CN(C(=O)CN1CCN(C(=O)c2ccco2)CC1)CC3	i	-0.2
O=C(CSc1nnc(COc2ccccc2)n1-c1ccccc1)c1cccs1	i	-0.73
O=C(Nc1ccc(Br)cn1)c1ccc2ccccc2c1	i	0.06
O=C(O)/C(=C\c1ccc(-c2ccccc2[N+](=O)[O-])o1)c1ccccc1	i	0.48
CN(C)/C=C/C(=O)c1ccc(Cl)c([N+](=O)[O-])c1	i	-0.25
CC(C)CSc1nnc2[nH]c(=O)cc(N)n12	i	2.02
COCC(=O)/C=C1\Sc2ccccc2N1C	i	-0.07
The list goes on.
SMILES	KCNQ2 inh	KCNQ2 inh baseline
Cn1cc(Cl)c(C(=O)Nc2cnn(Cc3ccc(F)cc3)c2)n1	i	1.32
O=[N+]([O-])c1cc(-c2nnc(Nc3ccc(O)cc3)c3ccccc23)ccc1N1CCOCC1	i	-0.53
CCn1c(NCc2cc(Br)ccc2NS(=O)(=O)c2ccc(C)cc2)nc2ccccc21	i	0.25
Cc1cc(=O)[nH]c(NN=C2C3CC4CC(C3)CC2C4)n1	i	-1.81
CCOC(=O)CNC(=O)N1c2ccccc2Sc2ccccc21	i	-0.07
O=C(NCC1CCCO1)C(=O)N/N=C/c1c(F)cccc1Cl (stereo not drawn)	i	-0.82
COc1ccc(-c2cc(C3CCN(Cc4cccc(C(F)(F)F)c4)CC3)[nH]n2)cc1	i	0.03
Cc1cc(C)nc(N2CCCC(C(=O)NCCc3cccc(F)c3)C2)n1 (stereo not drawn)	i	1.25
CC(=O)c1ccc(-n2c(CCC(=O)O)ccc2-c2cccs2)cc1	i	0.74
OC(CNc1nc2ccccc2s1)c1ccccc1 (stereo not drawn)	i	1.56
CC(C)(C)NC(=O)CN(Cc1cccnc1)C(=O)c1csnn1	i	1.48
COc1ccc(OCC(=O)Nc2nc3c(s2)CCCC3)cc1	i	-0.02
COc1ccc(CN(C(=O)c2nsc(Cl)c2Cl)C(C(=O)NC2CCCCC2)c2ccc(OC)cc2)cc1 (stereo not drawn)	i	0.34
O=C(COC(=O)C1=Cc2ccccc2OC1)NCc1ccco1	i	-0.13
CC1CCN(S(=O)(=O)c2ccc(C(=O)NNC(=O)C3CC3)cc2)CC1	i	-0.26
O=[N+]([O-])c1ccc(N/N=C/c2cccc(O)c2)cc1	i	2.01
CCC(C)n1c(SCC(=O)Nc2cc(C(C)(C)C)nn2-c2ccccc2)nc2ccccc2c1=O (stereo not drawn)	i	-1.34
CC(=O)NC1(c2ccc(F)cc2)CCN(C(=O)Nc2ccc(F)cc2F)CC1	i	-0.64
COc1cc(/C=C2\C(=O)N(C)C(=S)N2C)ccc1O	i	0.67
CN(C)S(=O)(=O)N1CCN(c2ccc([N+](=O)[O-])cc2)CC1	i	-0.49
CCc1cccc(CC)c1NC(=O)C1SC(=Nc2ccccc2C)C(c2nc3ccccc3s2)=C1N (stereo not drawn)	i	-0.62
O=C(COc1ccc(Oc2ccccc2)cc1)NCc1cn2ccccc2n1	i	0.39
COc1ccc(-c2ccc(N(C)C)cc2)cc1[C@H]1[C@@H]2C=CCC[C@@]2(C)C(=O)N1Cc1ccccc1	i	0.86
COc1cc(CC(=O)Nc2ccc(N3CCOCC3)cc2)cc(OC)c1OC	i	0.51
COc1cccc(-c2nnc(NC(=O)c3cccs3)s2)c1	i	0.69
O=C(N/N=C/c1cccnc1)c1cc(-c2ccc(Br)cc2)nc2ccccc12	i	-1.01
Cc1ccc(SC(C)C(=O)Nc2ncn[nH]2)cc1 (stereo not drawn)	i	-0.28
CC(C)[C@@H]1C=C(C(=O)O)O[C@H](OCCCCO)C1	i	0.05
OC(CNC1CCCc2ccccc21)COc1c(Cl)cccc1Cl (stereo not drawn)	i	-0.47
Cc1ccc(O)c(NC(=O)C2CC(c3ccc(F)cc3)=NO2)c1 (stereo not drawn)	i	0.81
Cc1ccc(NNC(N)=S)cc1Cl	i	1.7
O=C(c1ccc(CSc2ccc(Cl)cc2)cc1)N1CCCC1	i	-0.29
NNC(=O)c1ccc(COc2cccc3ccccc23)o1	i	-0.44
CC(C)CCNC(=O)CCc1nnc(Cc2c[nH]c3ccccc23)o1	i	0.82
CCc1nn(CCCC(=O)N2CCc3ccccc3C2)c(=O)c2cc3occc3n12	i	1.2
COc1ccc(OC)c(S(=O)(=O)Nc2ccc(-c3ccc4nncn4n3)cc2)c1	i	-3.24
COC(=O)Cc1nc(NC(=O)c2cccs2)sc1C	i	0.8
Cc1cc(NC(=O)CSc2nnc(C)o2)no1	i	1.15
O=C(Nc1ccc(F)cc1F)c1ccc(S(=O)(=O)N2CCCCC2)cc1	i	1.14
Cc1ccc(C(=O)Nc2nnc(-c3ccc(C(C)(C)C)cc3)s2)cc1	i	-0.62

Entries of single compounds from above. Order of screens: KCNQ2 inh | KCNQ2 inh baseline
CCc1nn(CCCC(=O)N2CCc3ccccc3C2)c(=O)c2cc3occc3n12 is listed with i | 1.2
CC(C)CCNC(=O)CCc1nnc(Cc2c[nH]c3ccccc23)o1 is listed with i | 0.82
Cc1ccc(C(=O)Nc2nnc(-c3ccc(C(C)(C)C)cc3)s2)cc1 is listed with i | -0.62
Cc1cc(NC(=O)CSc2nnc(C)o2)no1 is listed with i | 1.15
COC(=O)Cc1nc(NC(=O)c2cccs2)sc1C is listed with i | 0.8

Some of the entries above, set out differently.
Molecule | KCNQ2 inh | KCNQ2 inh baseline
CCc1nn(CCCC(=O)N2CCc3ccccc3C2)c(=O)c2cc3occc3n12 | i | 1.2
COc1ccc(OC)c(S(=O)(=O)Nc2ccc(-c3ccc4nncn4n3)cc2)c1 | i | -3.24
COC(=O)Cc1nc(NC(=O)c2cccs2)sc1C | i | 0.8

More compounds:
SMILES	KCNQ2 inh	KCNQ2 inh baseline
COc1ccc(Cl)cc1C(=O)NC(C)C	i	-0.44
COc1cccc(COC(=O)C2CCN(S(=O)(=O)c3ccc(Cl)cc3)CC2)c1OC	i	-1.65
Clc1cccc(Cl)c1NC1=NCCN1	i	0.32
COc1ccc(/C=N/NC(=O)c2ccc(N(C)S(=O)(=O)c3ccccc3)cc2)cc1OC	i	1.42
Cc1cc(C)n(-c2ccc(C(=O)OCC(=O)NCc3ccco3)cc2)n1	i	0.01
c1cncc(-c2nnc(-c3ccco3)o2)c1	i	0.6
CCOC(=O)N1CCN(c2c(Nc3cc(C)[nH]n3)c(=O)c2=O)CC1	i	1.71
Cc1cc(N)n(-c2ccc([N+](=O)[O-])cc2)n1	i	-1.02
Cc1cc(NS(=O)(=O)c2ccc(NC(=O)Cc3ccc([N+](=O)[O-])cc3)cc2)no1	i	0.33
Cn1c(C(=O)NC2CCCCC2)cc2c(=O)n3ccccc3nc21	i	0.07
COc1ccc2nc(NC(=O)C3CCN(C(=O)c4ccco4)CC3)sc2c1	i	-0.02
CCCN(CC1CCCO1)C(=O)c1cc(COc2ccc(F)cc2F)on1 (stereo not drawn)	i	0.78
Cc1ccc(NC2=C(C(=O)c3ccccc3)N(C)S(=O)(=O)c3ccccc32)cc1	-11.9*	1.23*
CCN1CCN(CCOc2ccccc2-c2ccccc2)CC1	i	1.37
Cc1cc(C(F)(F)F)nc(SCCN2CCOCC2)c1C#N	i	0.02
CCN(CC(=O)Nc1cc(S(=O)(=O)N2CCCCC2)ccc1Cl)Cc1ccccc1	-7.75*	-0.01*
CC(C)CNC(=O)c1ccccc1NC(=O)CCSc1ccccc1	i	0.28
COC(=O)C1=C(N)Oc2cc(C)[nH]c(=O)c2C1c1ccccc1OC (stereo not drawn)	i	-0.77
CCCNCCC(c1ccco1)c1ccccc1OC (stereo not drawn)	i	-0.04
CS(=O)(=O)N(CC(=O)Nc1ccccc1F)C1CCCCC1	i	-1.43

Already shown: two of the compounds above.
SMILES	KCNQ2 inh	KCNQ2 inh baseline
CCCN(CC1CCCO1)C(=O)c1cc(COc2ccc(F)cc2F)on1 (stereo not drawn)	i	0.78
Cc1ccc(NC2=C(C(=O)c3ccccc3)N(C)S(=O)(=O)c3ccccc32)cc1	-11.9*	1.23*

Next part:
SMILES	KCNQ2 inh	KCNQ2 inh baseline
Cc1cc(C)cc(NC(=O)C2CCN(c3cnccn3)CC2)c1	i	0.71
Cc1ccc(C(=O)NCC(c2ccco2)N2CCc3ccccc32)cc1 (stereo not drawn)	i	0.05
CC1CC(C)CN(c2ncc3c(n2)CC(c2ccc(Cl)cc2)CC3=O)C1 (stereo not drawn)	i	-0.61
CC(=O)N1CCCc2cc(S(=O)(=O)Nc3ccccc3C)ccc21	i	-0.5
COc1ccc(C2(NC(C)=O)CCN(C(=O)CCC(=O)O)CC2)cc1	i	0.95
COc1ccc(N(C(C)=O)S(=O)(=O)c2cc(OC)ccc2OC)cc1	i	0.99
Cc1ccc(-n2c(SCC(=O)Nc3ccc(C(=O)O)cc3)nnc2-c2ccncc2)cc1	i	-0.08
COC(=O)c1ccccc1NC(NC(=O)c1ccco1)C(=O)c1ccccc1 (stereo not drawn)	i	1.85
NC1=NC(=O)/C(=C/c2ccc(Cl)cc2Cl)S1	i	-0.89
Cc1ccc(NC2=C(N3CCOCC3)C(=O)c3ccccc3C2=O)cc1	i	-0.38
Cc1cccc(NC2=NC(=S)N(c3cccc(C(=O)O)c3)C23CCCCC3)c1	i	0.79
Cc1nn(Cc2cccc(C(=O)NC34CC5CC(CC(C5)C3)C4)c2)c(C)c1Br	i	-0.07

A portion of the library; rates above refer to the full screens.
